DUX4 inh – blocks DUX4-driven transcriptional activation. 293T-iDUX4 ZSCAN4-Gaussia luciferase reporter, 24 h; stronger effect = lower value. activity change, negative = inhibition, % (no concentration beside the values). actives 0.8% (n = 37,000);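 active = -10% or lower and over 25 points stronger than a control reporter; inconclusive = -10% or lower with a smaller gap; inactive = above -10%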;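 also: 0% = median of neutral control wells and -100% = median of positive control wells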
DUX4 inh difference – further read-out of DUX4 inh, marked with its call; Gaussia minus Italica difference, %; measured here: selective DUX4 reporter inhibition;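 worked out from the two reporters; negative = selective loss of the DUX4 reporter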
DUX4 inh control – also measured in DUX4 inh; calls as there; activity change, negative = inhibition, %; measured here: Italica tet-on control reporter;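 0 = neutral control and -100 = positive control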
The depositor's hits bear a star; ? = inconclusive; / = not tested or not shown.

DUX4 inh	DUX4 inh difference	DUX4 inh control	SMILES
1	4	-3.0	CCCNC(=O)N1[C@H](C#N)[C@@H](c2ccccc2-c2ccc(OC)cc2)[C@@H]1CO
?	/	/	N#Cc1cccc(-c2ccc([C@@H]3[C@@H](CO)N4CCCCN(C(=O)Nc5cccc(F)c5)C[C@@H]34)cc2)c1
0	4	-4.0	C[C@@H]1CN([C@@H](C)CO)C(=O)c2cc(C#Cc3ccccc3)cnc2O[C@@H]1CN(C)C(=O)c1ccccc1
?	/	/	C[C@H]1CN([C@@H](C)CO)C(=O)CCCn2nncc2CO[C@@H]1CN(C)Cc1ccc(Oc2ccccc2)cc1
1	0	1.2	O=C(Nc1ccccc1F)N1C[C@@H]2[C@H](c3ccccc31)[C@@H](CO)N2C(=O)c1ccccn1
9	-5	14	CCCNC(=O)C[C@H]1CC[C@H]2[C@@H](COC[C@@H](O)CN2S(=O)(=O)c2ccccc2F)O1
1	1	-0.5	CO[C@H]1CC[C@@H]2CCN(C)C(=O)[C@@H](C)[C@@H](OC)CN(C)C(=O)c3cccc(C#N)c3OC[C@@H]1O2
12	20	-7.8	C/C=C/c1ccc([C@@H]2[C@H](CO)N3CCCCN(S(=O)(=O)c4ccc(OC)cc4)C[C@@H]23)cc1
6	4	2.5	Cc1noc(C)c1S(=O)(=O)Nc1ccc2c(c1)C(=O)N([C@H](C)CO)C[C@H](C)[C@@H](CN(C)S(=O)(=O)c1ccc(F)cc1)OCCCC[C@@H](C)O2
0	6	-6.6	Cc1ccc(S(=O)(=O)Nc2ccc3c(c2)C(=O)N([C@@H](C)CO)C[C@@H](C)[C@H](CN(C)S(C)(=O)=O)O3)cc1
-8	-3	-5.3	C[C@@H]1CN([C@H](C)CO)C(=O)c2c(c3ccccc3n2C)-c2ccccc2CO[C@@H]1CN(C)Cc1ccc(O)cc1
1	-2	3.0	O=C(C[C@H]1C=C[C@H](NC(=O)Cc2cccnc2)[C@H](CO)O1)NCc1ccc2c(c1)OCO2
12	6	6.0	CN1CCCCN2[C@H](CO)[C@H](c3ccc(Br)cc3)[C@@H]2C1
1	0	0.6	N#C[C@H]1[C@H](c2ccc(C3=CCCCC3)cc2)[C@@H](CO)N1C(=O)c1cccc(F)c1
4	-1	5.2	Cc1noc(C)c1S(=O)(=O)Nc1ccc2c(c1)C(=O)N([C@@H](C)CO)C[C@@H](C)[C@@H](CN(C)C(=O)CCC(F)(F)F)OCCCC[C@H](C)O2
?	/	/	C[C@@H]1CN([C@H](C)CO)C(=O)CCCn2nncc2CO[C@@H]1CN(C)Cc1ccc(Cl)c(Cl)c1
-2	-3	1.0	COC(=O)C[C@H]1C[C@H]2c3cc(NC(=O)c4cccnc4)ccc3O[C@H]2[C@@H](CO)O1
11	5	5.7	N#C[C@H]1[C@H](c2ccccc2-c2cccc(F)c2)[C@@H](CO)N1C(=O)CN1CCOCC1
19	8	11	COc1ccc2c3c([nH]c2c1)[C@@H](CO)N(C(=O)c1ccncc1)CC31CN(C(=O)Nc2cccc(F)c2)C1
?	/	/	COc1ccc2c3c([nH]c2c1)[C@@H](CO)N(Cc1cc(F)ccc1F)CC31CN(C(C)=O)C1
3	5	-2.2	C[C@H]1CN([C@@H](C)CO)C(=O)CCCn2cc(nn2)CO[C@H]1CN(C)S(=O)(=O)c1ccccc1C#N
8	4	4.1	CC(C)CC#Cc1ccc([C@H]2[C@H]3CN(S(C)(=O)=O)CC(=O)N3[C@H]2CO)cc1
2	-4	6.4	CCOC(=O)c1cc2c(c(-c3cccc(-c4cccc(F)c4)c3)n1)[C@H](CCO)N(S(=O)C(C)(C)C)C2 (some centres not stated)
-1	-4	3.2	COc1ccc(NC(=O)N[C@H]2CC[C@@H](CC(=O)NC3CCCCC3)O[C@H]2CO)cc1
4	-2	5.6	COCC(=O)Nc1ccc2c(c1)OC[C@H](C)N(CCC(F)(F)F)C[C@@H](C)[C@H](OC)CN(C)C2=O

Overlap with the part before: 2 compounds; new compounds follow.
DUX4 inh	DUX4 inh difference	DUX4 inh control	SMILES
-1	-4	3.2	COc1ccc(NC(=O)N[C@H]2CC[C@@H](CC(=O)NC3CCCCC3)O[C@H]2CO)cc1
4	-2	5.6	COCC(=O)Nc1ccc2c(c1)OC[C@H](C)N(CCC(F)(F)F)C[C@@H](C)[C@H](OC)CN(C)C2=O
4	2	2.2	CNC[C@@H]1Oc2ccc(NS(=O)(=O)c3ccc(OC)cc3)cc2C(=O)N([C@H](C)CO)C[C@@H]1C
4	4	-0.2	COCC(=O)Nc1ccc2c(c1)[C@H]1C[C@@H](CC(=O)N3CCOCC3)O[C@H](CO)[C@H]1O2
1	-3	4.6	CN(C[C@H]1[C@H](c2ccccc2)[C@@H](CO)N1C(=O)c1ccccc1)C(=O)C1CC1
6	-4	9.7	O=C(Nc1nccs1)[C@@H]1[C@@H](CO)[C@@H]2Cn3c(cccc3=O)[C@H]1N2C(=O)C1CCCCC1
-9	-3	-5.8	CO[C@@H](CN(C)CC1CCOCC1)[C@H](C)CN(C(=O)Nc1ccc(F)cc1)[C@@H](C)CO
1	4	-3.4	CCCNC(=O)[C@@H]1[C@@H](CO)[C@@H]2Cn3c(ccc(C4=CCCC4)c3=O)[C@@H]2N1C(=O)CC
0	0	-0.2	COCC(=O)N1[C@H](C(=O)N2CCN(C)CC2)[C@@H](CO)[C@@H]2Cn3c(ccc(C4=CCCC4)c3=O)[C@@H]21
2	-10	12	CCS(=O)(=O)N1CCCCN2[C@H](CO)[C@H](c3ccc(-c4ccccc4F)cc3)[C@H]2C1
-1	1	-2.1	O=C(C1CCCCC1)N1[C@H](CO)[C@@H]2c3ccccc3NC[C@@H]21
-3	-8	4.7	O=C(Nc1ccc(C(F)(F)F)cc1)N[C@H]1C=C[C@@H](CC(=O)N2CCCCC2)O[C@@H]1CO
2	2	0.2	CC(=O)NC[C@H]1[C@@H](c2ccccc2)[C@H](CO)N1C(=O)Cc1cccnc1
3	-6	8.5	COc1ccc2c3c(n(C)c2c1)[C@H](CO)N(Cc1ccc2c(c1)OCO2)CC31CN(C(C)=O)C1
25	15	10	OC[C@H]1[C@H](c2ccc(-c3cccnc3)cc2)[C@@H]2CN(CC3CC3)CCCCN12
-4	-5	1.2	CCN(C[C@@H]1N[C@H](CO)[C@H]1c1ccc(-c2ccc(F)cc2)cc1)C(=O)COC
-3	0	-2.6	CN(C)C(=O)C[C@H]1C=C[C@H](NC(=O)C2CCOCC2)[C@H](CO)O1
20	21	-1.1	COc1ccc2c3c(n(C)c2c1)[C@@H](CO)N(C(=O)CN(C)C)CC31CN(S(C)(=O)=O)C1
0	1	-0.9	CCCN1C[C@H](C)[C@H](OC)CN(C)C(=O)c2ccc(NS(C)(=O)=O)cc2OC[C@H]1C
13	11	1.8	C[C@@H]1CN([C@H](C)CO)C(=O)c2c(c3ccccc3n2C)-c2ccccc2CO[C@H]1CN(C)S(=O)(=O)c1cccc(C#N)c1
0	0	0.2	CN1C[C@H]2[C@@H](c3ccccc31)[C@@H](CO)N2S(=O)(=O)c1ccccc1
10	6	4.1	COCC(=O)N1CCC2(CC1)CN(Cc1cccc(OC)c1)[C@@H](CO)c1c2c2ccc(OC)cc2n1C
0	-2	2.8	COc1ccc(S(=O)(=O)N(C)C[C@H]2OCc3cn(nn3)CCCC(=O)N([C@@H](C)CO)C[C@@H]2C)cc1
5	4	0.9	COCC(=O)Nc1ccc2c(c1)C(=O)N(C)[C@H]1CC[C@@H](CC(=O)NC3CCCC3)O[C@@H]1CO2
-2	2	-4.2	CC(C)NC(=O)N1CC2(C1)[C@@H](c1ccccc1)[C@@H](CO)N2CCC(F)(F)F
2	1	1.2	C[C@@H]1CN([C@@H](C)CO)C(=O)c2cc(NC(=O)Nc3ccc(C(F)(F)F)cc3)ccc2O[C@@H](C)CCCCO[C@@H]1CN(C)S(=O)(=O)c1ccc(Cl)cc1
0	0	0.3	CCCC#Cc1ccc([C@@H]2[C@@H](C#N)N(C(=O)C3CC3)[C@@H]2CO)cc1

Carrying on:
DUX4 inh	DUX4 inh difference	DUX4 inh control	SMILES
-1	-7	5.6	CCS(=O)(=O)Nc1ccc2c(c1)C(=O)N(C)[C@H]1CC[C@@H](CC(=O)NCc3ccc(OC)cc3)O[C@@H]1CO2
2	1	0.9	O=C1N[C@@H](c2ccccc2)COCc2cn(nn2)CC[C@H]1Cc1ccc(-c2ccccc2)cc1
2	0	1.3	C[C@@H]1CN([C@H](C)CO)C(=O)Cc2cc(NS(C)(=O)=O)ccc2O[C@@H]1CN(C)S(=O)(=O)c1cccs1
-2	-2	-0.2	CCS(=O)(=O)Nc1ccc2c(c1)C(=O)N(C)[C@@H]1CC[C@@H](CC(=O)NCCOC)O[C@H]1CO2
-10	0	-9.7	O=C(C[C@@H]1C[C@H]2c3cc(NS(=O)(=O)c4ccc(F)cc4)ccc3O[C@H]2[C@H](CO)O1)NCc1cccc(F)c1
0	-1	1.5	N#C[C@H]1[C@@H](c2ccc(C3=CCCC3)cc2)[C@@H](CO)N1C(=O)Nc1ccccc1F
-5	-3	-1.8	O=C1N[C@H](Cc2ccccc2)COCc2cn(nn2)CC[C@@H]1Cc1cccc(Cl)c1
0	1	-0.9	CO[C@H]1CC[C@@H]2CCN(C)C(=O)C[C@H](c3ccccc3)CN(C)C(=O)c3cc(C#N)ccc3OC[C@@H]1O2
0	0	0.8	C[C@H](NC(=O)[C@H]1[C@H](CO)[C@H]2Cn3c(ccc(-c4cccc(F)c4)c3=O)[C@H]2N1C)c1ccccc1
19	7	13	COc1cccc(-c2ccc([C@@H]3[C@@H](CO)N4CCCCN(S(=O)(=O)c5cn(C)cn5)C[C@@H]34)cc2)c1
5	3	2.0	O=C(NCC1CC1)[C@H]1[C@H](CO)[C@H]2Cn3c(ccc(-c4cccnc4)c3=O)[C@@H]1N2C(=O)C1CC1
-3	2	-5.6	O=C(Nc1ccccc1Cl)N1C[C@H]2[C@@H](c3ccccc31)[C@@H](CO)N2Cc1ccccc1
8	12	-4.5	COc1ccc2c3c(n(C)c2c1)[C@H](CO)N(Cc1cc(F)ccc1F)CC31CN(C(=O)C2CC2)C1
0	5	-5.2	C[C@@H]1CCCCO[C@H](CN(C)C(=O)CCCN(C)C)[C@@H](C)CN([C@H](C)CO)C(=O)c2cc(NC(=O)c3ccccc3)ccc2O1
4	12	-8.3	COC(=O)[C@H]1[C@H](CO)[C@H]2Cn3c(ccc(/C=C/c4ccccc4)c3=O)[C@H]2N1C(=O)C1CCCC1
-2	-4	2.6	Cc1ccc(S(=O)(=O)N(C)C[C@H]2Oc3ncc(Br)cc3C(=O)N([C@@H](C)CO)C[C@H]2C)cc1
1	-2	3.6	C[C@@H]1CCCCO[C@H](CN(C)C(=O)CCCN(C)C)[C@@H](C)CN([C@H](C)CO)C(=O)c2cc(NS(=O)(=O)c3cn(C)cn3)ccc2O1
?	/	/	COc1ccccc1C#Cc1ccc([C@@H]2[C@H]3CN(S(C)(=O)=O)CCCCN3[C@H]2CO)cc1
-7	-3	-4.0	O=S(=O)(c1cccc(F)c1)N1CC[C@H]2[C@H](CO)Nc3ccc(C#Cc4ccccc4F)cc3[C@H]21
-6	8	-14	O=C(c1cccc(F)c1)N1CCCCN2[C@@H](CO)[C@@H](c3ccc(C#CC4(O)CCCC4)cc3)[C@@H]2C1
-1	2	-3.4	COCC(=O)NC[C@H]1N[C@H](CO)[C@H]1c1ccc(-c2ccccc2F)cc1
0	2	-1.9	C[C@H](CO)N1C[C@H](C)[C@H](CN(C)Cc2ccncc2)Oc2ncc(C#Cc3ccc(C(F)(F)F)cc3)cc2C1=O
0	0	0.0	COC(=O)C[C@@H]1C[C@H]2c3cc(NC(=O)C4CCOCC4)ccc3O[C@H]2[C@H](CO)O1
1	-1	2.3	Cc1ccc(S(=O)(=O)N2CC[C@@H]3[C@H]2c2cc(C#Cc4ccc(F)cc4)ccc2N[C@@H]3CO)cc1
?	/	/	CN(C)C(=O)c1cccc(-c2ccc3c(c2)[C@@H]2[C@@H](CCN2Cc2nccs2)[C@@H](CO)N3)c1

Some of the entries so far, in markdown.
| Compound | DUX4 inh | DUX4 inh difference | DUX4 inh control |
| --- | --- | --- | --- |
| Cc1ccc(S(=O)(=O)N(C)C[C@H]2Oc3ncc(Br)cc3C(=O)N([C@@H](C)CO)C[C@H]2C)cc1 | -2 | -4 | 2.6 |
| C[C@@H]1CCCCO[C@H](CN(C)C(=O)CCCN(C)C)[C@@H](C)CN([C@H](C)CO)C(=O)c2cc(NS(=O)(=O)c3cn(C)cn3)ccc2O1 | 1 | -2 | 3.6 |
| COc1ccccc1C#Cc1ccc([C@@H]2[C@H]3CN(S(C)(=O)=O)CCCCN3[C@H]2CO)cc1 | ? | / | / |
| O=S(=O)(c1cccc(F)c1)N1CC[C@H]2[C@H](CO)Nc3ccc(C#Cc4ccccc4F)cc3[C@H]21 | -7 | -3 | -4.0 |
| O=C(c1cccc(F)c1)N1CCCCN2[C@@H](CO)[C@@H](c3ccc(C#CC4(O)CCCC4)cc3)[C@@H]2C1 | -6 | 8 | -14 |
| COCC(=O)NC[C@H]1N[C@H](CO)[C@H]1c1ccc(-c2ccccc2F)cc1 | -1 | 2 | -3.4 |
| C[C@H](CO)N1C[C@H](C)[C@H](CN(C)Cc2ccncc2)Oc2ncc(C#Cc3ccc(C(F)(F)F)cc3)cc2C1=O | 0 | 2 | -1.9 |
| COC(=O)C[C@@H]1C[C@H]2c3cc(NC(=O)C4CCOCC4)ccc3O[C@H]2[C@H](CO)O1 | 0 | 0 | 0.0 |
| Cc1ccc(S(=O)(=O)N2CC[C@@H]3[C@H]2c2cc(C#Cc4ccc(F)cc4)ccc2N[C@@H]3CO)cc1 | 1 | -1 | 2.3 |
| CN(C)C(=O)c1cccc(-c2ccc3c(c2)[C@@H]2[C@@H](CCN2Cc2nccs2)[C@@H](CO)N3)c1 | ? | / | / |

Only part of the results is shown; rates above refer to the full screens.
